NPR1 antag = blocks ANP-stimulated signaling of human Npr1 receptor. P16066. HEK293 hNpr1 GloSensor cGMP, ANP-stimulated luminescence. Potency, µM (highest dose often 46.3 µM), for inactives: at the top dose activity change, negative = inhibition, most hits filed as inhibitors. 76,000 tested, 1.6% active; active = well fitted inhibition curve with a large enough effect; inconclusive = small, poorly fitted or top-dose-only effect; inactive = no such curve, though single readings can be large or run the other way;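 note: nearly all actives have a fitted effect of over 60% in size; nearly all hits also lower the signal before the agonist is added; a reference antagonist and vehicle were the controls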
Target sequence (P16066 whole entry, looked up): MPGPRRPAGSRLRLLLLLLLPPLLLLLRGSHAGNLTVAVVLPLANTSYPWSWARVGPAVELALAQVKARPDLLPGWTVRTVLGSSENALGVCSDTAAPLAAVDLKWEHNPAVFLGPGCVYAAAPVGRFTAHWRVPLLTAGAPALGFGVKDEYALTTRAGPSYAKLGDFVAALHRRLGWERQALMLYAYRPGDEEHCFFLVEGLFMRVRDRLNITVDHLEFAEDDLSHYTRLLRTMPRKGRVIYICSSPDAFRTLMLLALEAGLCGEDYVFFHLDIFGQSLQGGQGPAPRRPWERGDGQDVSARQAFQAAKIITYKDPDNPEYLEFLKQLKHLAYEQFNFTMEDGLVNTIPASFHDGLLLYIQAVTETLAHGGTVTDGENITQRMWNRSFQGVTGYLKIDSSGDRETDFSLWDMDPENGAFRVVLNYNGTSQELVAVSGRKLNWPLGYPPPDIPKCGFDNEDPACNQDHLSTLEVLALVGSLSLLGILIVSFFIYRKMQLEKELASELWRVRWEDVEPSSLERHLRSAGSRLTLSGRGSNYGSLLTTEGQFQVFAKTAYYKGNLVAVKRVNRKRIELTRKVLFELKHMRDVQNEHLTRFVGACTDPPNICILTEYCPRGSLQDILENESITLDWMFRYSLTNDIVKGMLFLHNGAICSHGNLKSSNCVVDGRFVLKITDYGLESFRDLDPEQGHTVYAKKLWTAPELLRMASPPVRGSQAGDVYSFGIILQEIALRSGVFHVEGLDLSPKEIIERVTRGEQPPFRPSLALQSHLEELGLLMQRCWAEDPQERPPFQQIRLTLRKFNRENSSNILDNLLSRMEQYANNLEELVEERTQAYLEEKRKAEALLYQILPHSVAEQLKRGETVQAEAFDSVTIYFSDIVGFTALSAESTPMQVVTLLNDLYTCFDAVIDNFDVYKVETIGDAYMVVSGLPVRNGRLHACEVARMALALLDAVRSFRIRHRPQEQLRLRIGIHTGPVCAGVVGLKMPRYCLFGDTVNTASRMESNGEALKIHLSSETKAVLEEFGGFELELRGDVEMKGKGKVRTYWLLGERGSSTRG
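HEK293 cells stably expressing human Npr1 and cGMP GloSensor pGS-40F, loaded 2 h with 2% GloSensor reagent, given compound 30 min at room temperature. Luminescence read before and 20 min after 0.1 nM hNppA.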
An asterisk follows results filed as active; ? = inconclusive; & = joins results of further samples; [ ] = another dose, or the depositor's remark. % is set by controls: 0 for no effect and ±100 for the full control effect; potency is the fitted concentration of half-maximal effect. This is a subset. The share of hits here may be higher or lower than overall.

NPR1 antag | canonical_smiles
2.51µM* | COc1ccc2cc(C3CN(c4ncnc(C)c4C)CCO3)ccc2c1 (stereo not drawn)
-4.0% | CCn1nccc1-c1nc(-c2nnn3c2COC(c2ccc(C)cc2)C3)no1 (stereo not drawn)
-1.3% | CN(C)c1ccc(CN[C@H]2CC(C)(C)[C@@H]3C[C@@](C)(O)CC[C@]23CCC(=O)N2CCOCC2)cc1
9.0%[70.6 µM] | COC(=O)N1CCC2(C1)OC(=O)Nc1cnccc12 (stereo not drawn)
-5.5% | Cc1nc(-c2ccc(F)cc2)n(Cc2cccc(Cl)c2)c(=O)c1CCO
3.1% | CN(Cc1nc(-c2ccccn2)no1)CC1COc2ccccc2O1 (stereo not drawn)
-19.3% | Cc1ccc(C)c(C(=O)NC2CCN(c3cnn(CC4CC4)c(=O)c3)CC2)c1
7.7%[70.6 µM] | Cc1ccc(C(=O)N2CCC3(CC2)NC(=O)c2ccccc2O3)cc1
3.4%[70.6 µM] | COCc1cn(C[C@H]2C[C@@H](NS(=O)(=O)CC(C)C)[C@H](O)[C@@H]2O)nn1
2.7% | Cn1nccc1C(=O)N1CCCCCCNC(=O)CC1c1ccccc1 (stereo not drawn)
-3.0%[70.6 µM] | COc1ccc(-c2noc([C@@H](C)NCc3ccc(F)cc3)c2C(=O)O)cc1
0.5% | COc1ccccc1CCC(=O)N1CC(F)(F)C[C@H]1c1nnc(C)o1
0.0% | Cc1nc(C(C)NC(=O)c2coc(COc3cccc(F)c3F)n2)cs1 (stereo not drawn)
-2.5% | c1cc(-c2nc(-c3ccc(OC4CNC4)cc3)no2)ccn1
1.4% | CCCN1CCN(C(=O)C2(c3ccc(NC(=O)C4CC4)cc3)CCCCC2)CC1
-25.8% | O=C(Nc1ccc2c(N3CCCC3)ncnc2c1)c1ccc(Br)cc1
0.0%[70.6 µM] | CCCN1CCC2(CCN(C(=O)OC)CC2)Oc2ccccc21
-2.7% | C[C@@]12CO[C@@H](Cc3ccccc3)O[C@@H]1CC[C@]1(C)[C@@H]2CC[C@@H](O)[C@H]1CC(=O)N1CCCC1
0.1% | CCOc1ccc(-c2cc3c(=O)n(CCNC(=O)c4ccccc4)ccn3n2)cc1
-20.2% | CCOC(=O)C1=CN(CC(=O)Nc2c(C)cccc2CC)S(=O)(=O)N=C1C
1.0%[70.6 µM] | O=C1Cc2c(-c3cccc(CO)c3)n[nH]c2CN1Cc1ccccc1F
3.3% | O=C(N[C@H]1C[C@H]2C(=O)NC[C@@H](CCC(=O)N3CCN(c4ccccc4)CC3)N2C1)C1CC1
-1.1% | Cn1c(-c2ccc(CN3CC[C@H]4CNC[C@H]43)o2)nc2ccccc21
-27.1%[70.6 µM] | Cc1ccc(CN2Cc3[nH]cnc3C[C@H]2c2nc(-c3ccc4ccccc4c3)no2)cc1
3.0% | Cc1ccccc1NC(=O)CC[C@H]1NC(=O)c2ccccc2NC1=O
0.0% | COc1cc2c(cc1CNc1ncncn1)CCC2
1.5% | CC(C)c1noc(C2CCCN(S(=O)(=O)c3cccs3)CCC(=O)NCC2)n1 (stereo not drawn)
-12.2%[70.6 µM] | Cc1ccc(-c2nnc3ccc(NCc4cccs4)nn23)nc1
-11.5% | COc1ccc(C2=NOC3(CCN(C(=O)c4ccc(C(F)(F)F)cc4)C3)C2)cc1 (stereo not drawn)
-1.1%[70.6 µM] | O=C(NCc1ccco1)[C@@H]1Cc2nc[nH]c2CN1Cc1cc2ccccc2o1
? | O=C(CCc1nc2ccccc2[nH]1)N1CCCC(Cc2noc(-c3ccccc3)n2)C1 (stereo not drawn)
-11.5% | COc1ccc(OC)c(S(=O)(=O)N2CCCCCCNC(=O)[C@@H]3CCC[C@@H]32)c1
2.5% | O=C(c1ccc(F)cc1)N1CCC(OCC2CC2)C1 (stereo not drawn)
5.3% | COc1cccc(C(=O)N2CCC(N3C[C@H](O)C[C@H]3C(=O)NCc3ccc(C)cc3)CC2)c1
3.2% | O=C1CC(c2ccccc2)N(C(=O)CNC(=O)c2cccnc2)CCCCCCN1 (stereo not drawn)
-2.6%[70.6 µM] | O=C(O)CC1(CC(=O)N[C@H]2CO[C@H]3[C@@H]2OC[C@H]3O)CCCC1
-3.9%[70.6 µM] | Cc1noc(C)c1-c1cnc2[nH]cc(CC(N)=O)c2c1
? | CC(C)(C)c1noc(-c2nnn3c2COC(c2ccc(Cl)cc2)C3)n1 (stereo not drawn)
0.6%[70.6 µM] | Cc1nn(CCC#N)c(C)c1[C@@H]1C=C[C@@H](NC(=O)CCCC(=O)O)C1
-10.4% | Cc1noc(-c2ccco2)c1C(=O)NCc1ccc(F)cc1F
-7.1%[70.6 µM] | CC(C)NC[C@H]1COCc2nc3cc(S(C)(=O)=O)ccc3n21
3.3% | CCOc1ccc(CN2CCC(c3nnc(Cn4cncn4)n3C)CC2)cn1
-4.4% | Cc1nc(C(=O)N2CC(F)(F)C[C@H]2c2nnc(C3CC3)o2)co1
-8.6%[70.6 µM] | COc1cccc(N2CC(C(=O)N3CCOCC3)NC2=O)c1 (stereo not drawn)
0.3% | CC(C)[C@@H](N)C(=O)N1CCC(n2nccc2NC(=O)c2cccc(F)c2)CC1
0.4% | O=C(COc1ccc(Cl)cc1)N1CCc2n[nH]c(=O)n2CC1
1.1% | Cc1ccc(C2(O)CCN(C(=O)C(N)CC3CCCC3)CC2)nc1 (stereo not drawn)
0.4% | CC1(C)C[C@H](NC(=O)c2cccnc2)[C@@]2(CCC(=O)NCCN3CCOCC3)CC[C@](C)(O)C[C@@H]12
3.8% | O=C(CC1CCCN(c2cn[nH]c(=O)c2)C1)N1CCCCCC1 (stereo not drawn)
9.4% | CN(C)CCNC(=O)c1ccc(-c2nnc3ccc(NC(=O)C4CCC4)cn23)cc1

Remaining list, next part
NPR1 antag | canonical_smiles
-6.6% | COc1ccc(NC(=O)N2CC(N(C3CCOCC3)S(C)(=O)=O)C2)cc1F
-1.6% | COc1ccc2[nH]c3c(c2c1)CCN(C)C31CCN(C(=O)c2ccco2)CC1
-5.3% | Cc1cc(C)n(CCC(=O)N2[C@@H]3CC[C@H]2CC(NC(=O)c2ccc(F)cc2)C3)n1 (stereo partly drawn)
2.3%[70.6 µM] | O=C(NCc1ccccc1)N1CCN2C(=O)NC[C@H]2C1
-14.3% | Cc1cc(=O)n(CC(=O)Nc2ccc(Br)cc2)c(N2CCc3ccccc3C2)n1
-0.7% | O=C(c1cccnc1CCC1COc2ccccc2O1)N1CCCC1 (stereo not drawn)
-20.7% | CC(C)CC(=O)N1CCCC(c2noc(COc3ccccc3F)n2)C1 (stereo not drawn)
-1.2% | COCC(=O)NC1CCC12CCN(C(=O)c1ccc(C)nc1)CC2 (stereo not drawn)
4.8%[70.6 µM] | CCN(CC)Cc1nc(C2(O)CCN(Cc3ccccc3F)CC2)cs1
2.6% | COc1cc(=O)n2c(c1C(=O)NCC1CCOc3ccccc3C1)CCNCC2 (stereo not drawn)
-2.7% | Cc1noc(-c2ccco2)c1C(=O)N(C)Cc1ccccc1
4.5% | COc1ccccc1CNC(=O)CC1COCCN1C(=O)c1cnccn1 (stereo not drawn)
-3.0% | Cc1ccc(S(=O)(=O)N2C[C@@H](F)C[C@H]2C(=O)N2CCc3ccccc3C2)cc1Cl
1.2% | CCCCN1C(=O)NC(c2ccccc2OC)C2=C1COC2=O (stereo not drawn)
2.6% | Cn1ccc2cc(NCc3nnc(C(=O)N4CCC[C@@H]4CN4CCCC4)n3-c3ccccc3)ccc21
-4.6% | CN(C)c1cccc(Oc2nnnn2[C@H]2CO[C@H]3[C@@H]2OC[C@@H]3NC(=S)Nc2cccc(C#N)c2)c1
0.4%[70.6 µM] | Cc1noc2c(N3CC(O)C3)cc(-c3ccsc3)nc12
5.0% | CCCNC(=O)C(NC(=O)c1ccc(OC)cc1)C1CCN(C(=O)c2ccccc2C)CC1 (stereo not drawn)
-1.9%[70.6 µM] | CC[C@H]1CN(C(=O)c2ccnc(Cl)c2)CC[C@H]1CC(=O)NCCSC
-7.6% | Cc1nc(N2CCC(NC(=O)C(C)Oc3ccccc3)CC2)cc(C(F)(F)F)n1 (stereo not drawn)
1.7%[70.6 µM] | CN1[C@@H](CCC(=O)N2CCc3ccccc32)CNC(=O)[C@@H]2[C@H]1CCN2CC(C)(C)C
-12.7% | Cc1ccc(C(=O)N2CCC(C(NC(=O)c3cccs3)C(=O)NC3CC3)CC2)cc1 (stereo not drawn)
1.4% | CC(=O)NCC(=O)N1c2ccccc2CC1c1nc(C(C)C)no1 (stereo not drawn)
? | COCCNC(=O)C1CCN(C(=O)C2CN(c3cccc(OC)c3)C(=O)N2)C1 (stereo not drawn)
-9.3%&3.7%[70.6 µM] | CC(c1cccs1)N(C)Cc1ccc(C(F)(F)F)cc1 (stereo not drawn)
0.3% | COc1cccc(CCC(=O)N2CCC(Cc3nc(C4CC4)n[nH]3)CC2)c1
-1.7% | CN1CCC(NC(=O)C2CCCN(S(C)(=O)=O)CCC(=O)NCC2)CC1 (stereo not drawn)
-1.2% | Cn1ncc(N2CCCC(CC(=O)N3CCSCC3)C2)cc1=O (stereo not drawn)
2.3% | CC(=O)N[C@@H]1CN(Cc2cccc(Br)c2)C[C@H]1CO
-15.8%[70.6 µM] | Cn1c([C@H]2CCN(Cc3ccc(F)c(F)c3)C2)nc2ccccc21

A different layout for 4 compounds above:
Structure | NPR1 antag
CC(C)(C)c1noc(-c2nnn3c2COC(c2ccc(Cl)cc2)C3)n1 (stereo not drawn) | ?
Cc1nn(CCC#N)c(C)c1[C@@H]1C=C[C@@H](NC(=O)CCCC(=O)O)C1 | 0.6%[70.6 µM]
Cc1noc(-c2ccco2)c1C(=O)NCc1ccc(F)cc1F | -10.4%
CC(C)NC[C@H]1COCc2nc3cc(S(C)(=O)=O)ccc3n21 | -7.1%[70.6 µM]

Further structures follow.
NPR1 antag | canonical_smiles
-2.3%[70.6 µM] | CC(C)(C)c1cc(C[C@@H]2C[C@H](NS(C)(=O)=O)C2(C)C)no1
4.7% | COc1cc(CN2CC=C(C)CC2)ccc1OCC(O)CN1CCSCC1 (stereo not drawn)
? | COc1ccc(CN2C(=O)[C@@H]3C[C@@H](CN3Cc3cccs3)Oc3ccccc32)cc1
2.0% | O=C1O[C@@H]2CN(c3ncccn3)C[C@@H]2N1CCc1ccc(F)cc1
-1.3% | CCC(=O)Nc1cccc(OCC(=O)NCc2sc(C)nc2CC)c1
-17.4% | CCOc1ccc(NC(=O)Cn2c(-c3cnccn3)nc(C)c(C)c2=O)cc1
4.1% | CNC(=O)[C@@H]1C[C@@H](O)CN1C1CCN(C(=O)CCc2nc3ccccc3s2)CC1
-12.4% | N#Cc1ccc(CN2CCc3nc(N4CCc5ccccc5C4)[nH]c(=O)c3CC2)cc1
-0.8% | CCN1CCN(Cc2cc(C)cc(CN(C)Cc3ccccn3)c2C)CC1
-3.4% | Cc1nc(-c2c3n(c(=O)n(CC(=O)Nc4ccccc4F)c2=O)CCCCC3)no1
2.9% | CCOC(=O)CN1CCN(C(=O)CCc2cc3cc(OC)ccc3[nH]c2=O)CC1
2.1%[70.6 µM] | Cc1ccccc1-c1nccn2c(C3CN(Cc4ccccc4O)C3)ncc12
-5.8%[70.6 µM] | COCCN1CCC2(C1)CN(C)c1ccc(C(=O)NCCOc3ccccc3)cc12 (stereo not drawn)
-26.8% | CCc1nc(-c2c3n(c(=O)n(CC(=O)NCc4ccccc4)c2=O)CCCCC3)no1
-3.8%[70.6 µM] | CCCCN1C(=O)[C@@H]2C[C@@H](O)CN2C2(CN(Cc3cccs3)C2)C1=O
-0.6% | CCCNC(=O)[C@H]1CCC[C@H]1NC(=O)c1ccc(OC)cc1
2.2% | CNCCN1C(=O)CC[C@H]2CN(C(=O)CCc3ccsc3)CC[C@H]21
0.6% | COCCN1CCC(CN(Cc2ccc(Cl)s2)CC2CCCO2)CC1 (stereo not drawn)
2.6% | O=C1CCCN1CC(=O)N1C[C@@H](COCC2CC2)[C@H](c2ccncc2)C1
6.8% | Cn1cc(S(=O)(=O)N2Cc3ccccc3C[C@H]2C(=O)NC(C)(C)C)cn1
1.3% | CNC(=O)[C@@H]1C[C@H](N)CN1S(=O)(=O)c1cccc(OC)c1
7.0% | CC1CCN(C(=O)[C@@H](C)C2CC[C@@]3(C)CC[C@H](NC(=O)c4ccccn4)[C@@H](C)[C@@H]3[C@H]2O)CC1 (stereo partly drawn)
0.5% | C=CCNC(=O)C(NC(=O)c1cccc(C)c1)C1CCN(C(=O)c2ccccc2OC)CC1 (stereo not drawn)
0.1% | COc1ccc(-c2nc(C3CC(=O)N(c4ccc(C)cc4)C3)no2)cn1 (stereo not drawn)
-0.6% | O=C(Cc1cccc(F)c1)NCc1nnc2ccc(-c3ccc(Cl)cc3)nn12
7.0% | COCc1nncn1C1CCN(S(=O)(=O)c2ccc(OC)cc2)CC1
-11.5% | COc1cccc(CN2CCCC(COc3ccccc3C(=O)NC3CC3)C2)n1 (stereo not drawn)
-0.1% | CCC(=O)Nc1cccc(-c2nnc3n2CCCC3)c1
4.5%[70.6 µM] | COc1ccc(C)cc1-c1cn(C)c(=O)n2cc(COc3ccccc3)nc12
-2.4% | O=C(CCc1conc1-c1ccccc1F)NCc1cccc(Cl)c1

In another format: results already given.
COc1ccc(-c2nc(C3CC(=O)N(c4ccc(C)cc4)C3)no2)cn1 (stereo not drawn)
- NPR1 antag = 0.1%

O=C(Cc1cccc(F)c1)NCc1nnc2ccc(-c3ccc(Cl)cc3)nn12
- NPR1 antag = -0.6%

COCc1nncn1C1CCN(S(=O)(=O)c2ccc(OC)cc2)CC1
- NPR1 antag = 7.0%

COc1cccc(CN2CCCC(COc3ccccc3C(=O)NC3CC3)C2)n1 (stereo not drawn)
- NPR1 antag = -11.5%
